From PubChem
eIF4H inh = inhibitors of RNA binding by human eIF4H | Q15056 | hit rate 0.94% among 290,000 | eIF4H fluorescence polarization binding assay | inhibition, % at 35 µM;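 active = 50% or more with normal probe brightness, or confirmed in later tests; inconclusive = above 50% with abnormal brightness, or retests that disagree; inactive = below 50% or failed in later tests; about a fifth of its hits are not listed in these tables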;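 note: calls also rest on retests at 20 µM and on dose response follow-up; 0% = protein and probe with vehicle and 100% = probe without protein; strong numbers were not always called active; many hits fall short of the cut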
MT1-MMP act inh = blocks activation of human MT1-MMP; P50281; HT1080 RFP-PRO-GFP cells, GFP/RFP ratio fluorescence, overnight; percent of plate control window, DMSO zero; hit rate 0.061% among 360,000; GFP/RFP ratio change, % at 20 µM; AID 651647;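 active = GFP/RFP ratio change of at least 30% with cell ATP level not reduced by more than half and red fluorescence within 50% of control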; note: strong numbers were not always called active
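Material – HT1080 RFP-PRO-GFP cells · Control set – DMSO wells and RFP-L50D-GFP cells · Incubation – overnight cell settling, then overnight compound exposure, 37 °C, 5% CO2 · Compound dosing – single-point 20 µM compound, 1% DMSO · Read-out – GFP/RFP fluorescence ratio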
CSC inhib = blocks cancer stem cells; cancer stem cell-like cells viability, luminescence; inhibition, % at 7.5 µM; hit rate 1.1% among 300,000;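 active = mean at 75% or more and at least half the replicates too; inconclusive = mean and replicates disagree; tested in HMLE shEcad cells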;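 note: 0% = median of negative and 100% = median of positive control wells; the first replicate is given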
PABP polyA inh = PABP-poly(A) binding inhibition | P11940 | inhibition, % at 35 µM | hit rate 1% among 290,000 | PABP-poly(A) RNA binding, fluorescence polarization;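 active = 50% or more with normal probe brightness, or confirmed in later tests; inconclusive = above 50% with abnormal brightness, or retests that disagree; inactive = below 50% or failed in later tests; about a fifth of its hits are not listed in these tables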;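 note: calls also rest on retests at 20 µM and on dose response follow-up; controls were probe without protein and protein plus probe with vehicle; some compounds called inactive have numbers as strong as hits; many hits fall short of the cut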
Rce1 inh = blocks yeast Ras-converting enzyme. yeast membranes, quenched prenylated peptide cleavage fluorescence. calls only. hit rate 0.27% among 290,000. AID 2563;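 active = fall in fluorescence gain of 50% or more versus controls, with final raw signal at or below 3038400; inconclusive = same 50% fall but final raw signal above 3038400; inactive = fall in fluorescence gain under 50%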;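 note: plate controls were neutral control wells for no effect and wells lacking membranes for full effect; tested at 10 µM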
Target sequence (Q03530 whole entry, looked up): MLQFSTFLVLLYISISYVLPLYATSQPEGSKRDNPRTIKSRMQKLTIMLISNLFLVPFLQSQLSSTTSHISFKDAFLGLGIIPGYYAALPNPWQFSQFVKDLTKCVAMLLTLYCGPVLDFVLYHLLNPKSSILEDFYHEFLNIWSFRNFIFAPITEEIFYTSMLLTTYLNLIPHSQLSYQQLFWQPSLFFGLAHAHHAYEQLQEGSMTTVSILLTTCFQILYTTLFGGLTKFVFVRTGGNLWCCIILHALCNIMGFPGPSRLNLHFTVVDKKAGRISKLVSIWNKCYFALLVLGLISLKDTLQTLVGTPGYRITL
Env fusion inh = HIV envelope-mediated fusion inhibition; HeLa-JRFL Env/CEM21 cell fusion, luciferase; inhibition, % at 12.3 µM; hit rate 1.1% among 360,000; AID 651610;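 active = mean replicate inhibition score of at least 50 and every replicate individually at or above 50; inconclusive = only one of the two criteria met; inactive = mean below 50 and not all replicates reaching 50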;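 note: 0% = plate neutral controls and 100% = maraviroc near 300 nM; one replicate is shown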
UUG fidelity = alters start codon recognition fidelity in yeast; S. cerevisiae UUG-firefly luciferase reporter, luminescence/redox ratio; activity score, % at 18.7 µM; hit rate 0.13% among 350,000; AID 602363;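 active = replicate mean at a twofold rise or more, about +100% in these data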;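 note: firefly luciferase made from a UUG start codon reports start codon fidelity; reporter light over untreated wells divided by growth signal over untreated wells; some hits fall short of that in this replicate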
eIF4H inh retest = recorded beside eIF4H inh, whose call it bears; inhibition, %; compound at 20 µM; confirmation average;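 mean of two retest wells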
PABP polyA inh retest = second read-out of PABP polyA inh, no call of its own (marks repeat the call); inhibition, %; compound at 20 µM; confirmation repeats;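 mean of two retest wells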
MT1-MMP act inh RFP = recorded beside MT1-MMP act inh, whose call it bears; RFP signal change, %; measured here: RFP expression control read;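 0 = vehicle wells; hits needed this value within 50% of zero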
An asterisk follows results filed as active; i = inactive; u = inconclusive; x = no result given; & = joins results of further samples. Some of the compounds tested; the hit share may differ from the screen's.

SMILES	eIF4H inh	MT1-MMP act inh	MT1-MMP act inh RFP	CSC inhib	PABP polyA inh	Rce1 inh	Env fusion inh	UUG fidelity	others
CC(NC(=O)CSc1ccccc1)c1ccccc1 (stereo not given)	4	-1	2	-13	3	i	2	1
COc1ccc(C(C)=O)cc1CSc1nnnn1-c1ccc(O)cc1	-2	-1	-3	0	-8	i	-2	x
Cc1ccnc(NS(=O)(=O)c2ccc(NC(=O)c3ccc(N4C(=O)CCC4=O)cc3)cc2)n1	26	x	x	2	-2	i	3	-3
Cc1ccc(S(=O)(=O)N(C)C)cc1NC(=O)c1cc(C(C)(C)C)nn1Cc1ccccc1	-1	-10	-16	9	3	i	29	x
Cc1ccc(-n2cc(CN3CCN(Cc4nccn4C)CC3)c(-c3cccc(C)c3)n2)cc1	-1	-8	2	9	5	i	-27	-3
Cc1cc(C)cc(NC(=S)NCc2ccc(F)cc2)c1	-8	-5	-1	4	3	i	-21	-27
CCN(CC(=O)NC(=O)NCc1ccccc1)Cc1nc2ccccc2c(=O)[nH]1	-6	-3	-8	-2	-12	i	16	9
CCN(C(=O)Cn1cnc2ccccc2c1=O)C1CCS(=O)(=O)C1 (stereo not given)	x	x	x	-14	x	i	x	-12
COc1ccccc1/C=C/C=N/n1c(-c2ccc(F)cc2)n[nH]c1=S	2	2	1	29	3	i	-3	-24
Cc1ccc(SCC(=O)OCC(=O)NCCNC(=O)COC(=O)CSc2ccc(C)c(C)c2)cc1C	x	-2	3	2	x	i	3	x
CCn1c(SCC(=O)NC(C)C)nnc1-c1cccs1	-8	6	3	-4	-7	i	x	-21
NC(=O)C1(S(=O)(=O)c2ccccc2)CCCCC1	-13	4	4	-9	2	i	x	-1
Cc1cc(OCc2cc(C(=O)N(C)CCOc3ccccc3)no2)cc(C)c1Cl	-2	4	2	30	2	i	22	-3
Cc1cccc(C(C)C)c1NC(=O)COC(=O)CNS(=O)(=O)c1ccccc1	x	5	5	-9	x	i	-359	x
CCOc1ccc(N2C(=O)C(Cl)=C(Nc3ccccc3O)C2=O)cc1	11*	-43	7	9	52	i	x	5	eIF4H inh retest=72*;PABP polyA inh retest=40
COc1ccc(C[C@H](N)C(=O)N[C@H]2[C@@H](O)[C@H](n3cnc4c(N(C)C)ncnc43)O[C@@H]2CO)cc1	x	-23	-38	3	x	x	31	-2
COc1ccc2nc(NC(=O)C3CCN(C(=O)c4ccc(F)cc4)CC3)sc2c1	1	2	-8	x	-2	i	1	-13
CC(C)CSc1nc(N2CCOCC2)c2c(c1C#N)CC(C)(C)SC2	-8	-2	-3	43	-10	x	x	-4
COc1cc(NC(=S)N(C)C)c(OC)cc1Cl	-6	0	1	-7	-12	i	0	-4
CCc1ccc(N2CC(C(=O)NC3CCCCC3C)CC2=O)cc1 (stereo not given)	21	0	-1	10	-1	i	12	-17
O=C(c1cncc(Br)c1)N1CCN(S(=O)(=O)c2ccccc2C(F)(F)F)CC1	-2	-3	1	2	12	i	10	x
CCc1ccc2nc3n[nH]c(N)c3cc2c1	2	3	-1	-20	-5	i	-28	-28
CC1(C)CC(=O)c2c(oc3ccc(NS(=O)(=O)c4cccc5cccnc45)cc23)C1	-6	1	-13	x	4	i	5	x
N#Cc1c(N)oc(-c2ccco2)c1-c1ccco1	u	-9	10	x	u	i	x	-14
COc1ccccc1OCc1ccc(C(=O)NCc2cccnc2)o1	-4	1	-1	1	-2	i	12	-10
O=C(CCC(=O)N1CCN(c2ccccn2)CC1)Nc1nnc(C2CCCCC2)s1	7	9	-5	-3	-10	i	2	25
CCCCc1nnc(NC(=O)c2oc3ccc(OC)cc3c2C)s1	x	-4	0	13	x	i	x	-8
CC(=O)N/C(=C/c1cccnc1)C(=O)Nc1ccc(Cl)cc1	x	-1	3	7	x	i	4	-14
CCOc1ccc(CNC(=O)C2CCN(S(=O)(=O)N3CCC(C)CC3)CC2)cc1OC	x	0	-1	x	x	x	11	-23
CN(CC(=O)Nc1cccc(F)c1)C(=O)CCSc1ccc(F)cc1	x	0	-2	3	x	i	2	-6
CCN(c1ccccc1)S(=O)(=O)c1ccc(OC)c(N=N/C(C(=O)Nc2ccccc2)=C(/C)O)c1	2	-6	-5	-1	3	i	-4	x
COC(=O)C1=C(CCc2ccccc2)NC(=O)NC1c1ccc([N+](=O)[O-])cc1 (stereo not given)	x	3	-4	-1	x	i	-3	7
COc1ccc(Cl)cc1NC(=O)CN(C)C(=O)c1n[nH]c2ccccc12	x	-3	-15	-4	x	i	x	-7
Brc1cccc(-c2nc3cccnc3nc2-c2cccc(Br)c2)c1	4	0	-1	26	6	i	9	2
Cc1ccc(N2CCN(c3ccc(NCc4nc5ccccc5n4C)cc3)CC2)cc1	47	-24	1	-9	1	i	x	x
COc1ccc(CN2CCN(Cc3ccccc3F)CC2)cc1OC	13	4	2	2	19	i	-1	-2
CCN(CC)C(=O)c1[nH]cnc1C(=O)Nc1ccon1	x	-7	3	15	x	x	-4	9
COc1ccc(Nc2nnc(C)c3ccccc23)cc1C(N)=O	2	3	3	-11	4	i	x	-21
COc1cc(/C=C2\C(=O)NN(c3ccccc3)C2=O)cc([N+](=O)[O-])c1O	35	2	-1	6	-7	i	12	x
O=C(O)C(O)c1ccccc1 (stereo not given)	-8	2&1	2&4	6&-14	7	i	22	3&2
Cc1nn(-c2cc(Cl)ccc2Cl)c(C)c1C(=O)O	-3	4	1	-9	-13	i	7	-16
N#Cc1c(NC(=O)c2ccc(-c3ccccc3[N+](=O)[O-])o2)sc2c1CCCC2	1	-10	2	-6	2	i	x	-5
Cc1ccc(S(=O)(=O)N2C[C@@H]3[C@H]4CC[C@H](C4)[C@@H]3[C@@H](C)[C@@H]2C2CCCCC2=O)cc1 (stereo not given in full)	x	-1	-3	x	x	x	26	-12
Cc1ccc(OCCCCN2CCCCC2)c(C)c1	-13	1	2	17	1	i	3	-3
CCCN(C(=O)c1cc(CC)c(C)s1)c1c(N)n(Cc2ccccc2)c(=O)[nH]c1=O	x	3	0	-7	x	i	2	x
O=C(Nc1ccc(S(=O)(=O)N2CCOCC2)cc1)C1COc2ccccc2O1 (stereo not given)	2	3	2	5	11	i	-462	-4
O=C(Cn1cnc([N+](=O)[O-])n1)c1ccc(O)c(O)c1	13	3	4	9	3	i	-6	-3
CC(C)C[C@H]1CN([C@@H](Cc2ccccc2)CN2CCC[C@@H]2CN2C(=O)C(=O)NC[C@@H]2Cc2ccc(O)cc2)C(=O)C(=O)N1CC1CCCCCC1	x	3	4	x	x	x	-37	12

For reference, 13 of the compounds above.
SMILES	eIF4H inh	MT1-MMP act inh	MT1-MMP act inh RFP	CSC inhib	PABP polyA inh	Rce1 inh	Env fusion inh	UUG fidelity	others
COc1ccc(CN2CCN(Cc3ccccc3F)CC2)cc1OC	13	4	2	2	19	i	-1	-2
CCN(CC)C(=O)c1[nH]cnc1C(=O)Nc1ccon1	x	-7	3	15	x	x	-4	9
COc1ccc(Nc2nnc(C)c3ccccc23)cc1C(N)=O	2	3	3	-11	4	i	x	-21
COc1cc(/C=C2\C(=O)NN(c3ccccc3)C2=O)cc([N+](=O)[O-])c1O	35	2	-1	6	-7	i	12	x
O=C(O)C(O)c1ccccc1 (stereo not given)	-8	2&1	2&4	6&-14	7	i	22	3&2
Cc1nn(-c2cc(Cl)ccc2Cl)c(C)c1C(=O)O	-3	4	1	-9	-13	i	7	-16
N#Cc1c(NC(=O)c2ccc(-c3ccccc3[N+](=O)[O-])o2)sc2c1CCCC2	1	-10	2	-6	2	i	x	-5
Cc1ccc(S(=O)(=O)N2C[C@@H]3[C@H]4CC[C@H](C4)[C@@H]3[C@@H](C)[C@@H]2C2CCCCC2=O)cc1 (stereo not given in full)	x	-1	-3	x	x	x	26	-12
Cc1ccc(OCCCCN2CCCCC2)c(C)c1	-13	1	2	17	1	i	3	-3
CCCN(C(=O)c1cc(CC)c(C)s1)c1c(N)n(Cc2ccccc2)c(=O)[nH]c1=O	x	3	0	-7	x	i	2	x
O=C(Nc1ccc(S(=O)(=O)N2CCOCC2)cc1)C1COc2ccccc2O1 (stereo not given)	2	3	2	5	11	i	-462	-4
O=C(Cn1cnc([N+](=O)[O-])n1)c1ccc(O)c(O)c1	13	3	4	9	3	i	-6	-3
CC(C)C[C@H]1CN([C@@H](Cc2ccccc2)CN2CCC[C@@H]2CN2C(=O)C(=O)NC[C@@H]2Cc2ccc(O)cc2)C(=O)C(=O)N1CC1CCCCCC1	x	3	4	x	x	x	-37	12

Later entries:
SMILES	eIF4H inh	MT1-MMP act inh	MT1-MMP act inh RFP	CSC inhib	PABP polyA inh	Rce1 inh	Env fusion inh	UUG fidelity	others
CCc1ccc(OCC(=O)NNC(=O)CSc2nnc(-c3ccc(C)cc3)n2C)cc1	-10	-1	5	-4	-1	i	-12	x
C/C(=N\NC(=O)c1ccc(Cl)c(Cl)c1)c1ccccn1	11	15	-4	81*	-6	i	-159	-20
NC(=O)c1ccccc1NC(=O)c1ccccc1Cl	7	-1	-4	-3	7	i	-30	-10
CCCCc1ccc(S(N)(=O)=O)cc1	9	2	0	-4	8	i	-6	-14
CN1OC(COC(=O)c2ccc(Cl)cc2)CC1c1ccccc1 (stereo not given)	8	-1	-7	-18	-2	i	-148	-2
CCOC(=O)COc1ccc(C(=O)Nc2cccc(Cl)c2C)cc1	-4	-1	1	5	-5	i	-16	x
CS(=O)(=O)N(CC(=O)Nc1ccc(S(=O)(=O)N2CCCC2)cc1)c1ccccc1	-6	-5	-3	-1	-10	i	-2	x
CC(C)(C)c1nc(SCC(=O)Nc2ccc3c(c2)OCCO3)c2ccccc2n1	-4	-6	-6	10	10	i	x	-15
Cc1ccc2oc(=O)c3cc(C(=O)NCCCN4CCN(C)CC4)sc3c2c1	7	6	4	10	7	i	-1	-12
COC(=O)C(NC(=O)c1ccccc1C(=O)O)c1ccc2ccccc2c1 (stereo not given)	31	3	3	-19	-2	i	7	-23
Cc1cc2[nH]ncc2cc1NC(N)=S	-8	-3	7	-17	-3	i	-18	-21
CN(C)S(=O)(=O)c1cccc(C(=O)NCC(=O)NC2CCN(Cc3ccccc3)CC2)c1	-3	0	1	9	6	i	7	2
Cc1cc(NC(=O)CSc2nnc(-c3ccncc3)n2C)n(-c2ccccc2)n1	1	3	-3	-14	0	i	10	x
COc1ccc(NC(=O)c2cc(-c3ccc(C)o3)nc3ccccc23)cc1OC	1	-5	-1	12	15	x	x	-16
O=C(Cc1csc(N2CCOCC2)n1)N/N=C/c1ccc(Cl)cc1Cl	6	-9	-7	-3	4	i	-14	-19
O=C(Cc1ccc(Cl)cc1)Nc1cccc(C(=O)Nc2ccccc2C(=O)O)c1	1	2	4	0	17	i	20	-21
CCCNC(=O)NC(=O)CSc1nnc(-c2ccncc2)n1CC	2	3	6	-23	9	i	x	-18
Cc1cc(N)ccc1N1CCCC1	u	20	17	0	u	i	x	-11
COc1ccccc1/C(C)=N/Oc1cc(N)cc([N+](=O)[O-])c1	x	4	0	25	x	x	-4	-19
Cc1ccc2nc(-c3cccnc3)cc(C(=O)Nc3ccc(F)cc3C)c2c1	-12	5	-2	0	7	i	18	x
COc1cccc(NCc2cc(=O)oc3cc(-c4ccccc4)c(O)cc23)c1	1	5	-2	1	15	i	9	x
